Bioassay records deposited in PubChem by National Center for Advancing Translational Sciences (NCATS).
PINK1 modulator = changes PINK1 expression; Potency, µM (titrated, usually from 76.6 µM), for inactives: at the top dose activation (PINK1 increase), hits mostly activators; AID 624263; PINK1 immunofluorescence, high-content cytometry, 24 h; hit rate 0.2% among 410,000; active = well fitted activation curve with a large enough effect; inconclusive = small, poorly fitted or top-dose-only effect; inactive = flat fitted curve, though single readings scatter; cell line not stated here;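 further: potency means the concentration at half of the fitted maximal effect; % of control where 0% means no effect; nearly all actives have a fitted effect of over 65% in size; a mitochondrial uncoupler was the plate control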
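PINK1 protein, normally rapidly degraded, was detected by immunofluorescence after 24 hour compound treatment of a stable cell line. Titration data (5 concentrations) came from laser-scanning cytometry, with CCCP-treated wells as controls.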
TRPML1 blocker = blocks the human TRPML1 channel | AID 624415 | hit rate 0.02% among 390,000 | activity change, negative = inhibition, % (no concentration beside the values) | Q9GZU1 | TRPML1-inducible cells, Ca2+ dye fluorescence, FDSS; hits give low values; inhibition of EC80 agonist-evoked calcium signal; in the data active means activity change below about -50%; inconclusive means about -30% to -50%; inactive means above about -30%;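 further: stimulus is agonist 54-4 at its EC80 concentration; on the % scale 0 is the no-effect control and ±100 the full control effect; compound concentration not given in the record; the text of the record puts the active cut at -80%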
Target sequence (Q9GZU1 whole entry, looked up): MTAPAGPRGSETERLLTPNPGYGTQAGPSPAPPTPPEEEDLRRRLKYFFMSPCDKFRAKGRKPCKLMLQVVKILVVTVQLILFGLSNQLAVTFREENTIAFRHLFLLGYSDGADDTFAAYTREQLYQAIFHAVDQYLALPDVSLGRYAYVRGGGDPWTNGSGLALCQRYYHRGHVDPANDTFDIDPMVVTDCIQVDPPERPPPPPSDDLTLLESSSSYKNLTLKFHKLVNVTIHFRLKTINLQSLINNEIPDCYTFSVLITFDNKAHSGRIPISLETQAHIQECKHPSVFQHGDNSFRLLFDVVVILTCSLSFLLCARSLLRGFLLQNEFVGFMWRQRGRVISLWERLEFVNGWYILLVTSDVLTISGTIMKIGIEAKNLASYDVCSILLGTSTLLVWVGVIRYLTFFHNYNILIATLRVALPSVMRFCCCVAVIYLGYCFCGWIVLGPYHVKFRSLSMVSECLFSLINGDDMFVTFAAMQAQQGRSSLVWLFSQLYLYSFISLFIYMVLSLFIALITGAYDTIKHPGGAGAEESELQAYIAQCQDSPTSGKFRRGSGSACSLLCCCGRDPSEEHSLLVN
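TRPML1-DL cells, Tet-induced overnight (~16 h, 37 °C) at 1,500 cells/well, were loaded with Ca8 no-wash dye plus quencher for 45-90 min at room temperature. Compounds were pinned during FDSS kinetic reading; agonist 54-4 at EC80 (4 uM final) then added.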
TRPML1 ag = human mucolipin-1 channel agonism; TRPML1-expressing cells, Ca2+ dye fluorescence, FDSS; host cell line not named in the record; reference of the full effect not given here; activation, % (test concentration not listed); hit rate 0.12% among 410,000; in the data active = activation above about 50%; inconclusive = about 30% to 50%; inactive = below about 30%; further: 0% is about no effect; the text of the record puts the active cut at 80%
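Cells: TRPML1-DL, 1X Tet inducer, ~16 h at 37 degrees C/5% CO2. Dye: ABD Ca8 no-wash + quencher, 45-90 min RT. Read: 10 s baseline, compound add, 110 s agonist phase; 54-4 EC80 (4uM final), 110 s antagonist phase.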
* = called active by the depositor; . = not tested or not shown; & = joins results of further samples. Some of the compounds tested; the hit share may differ from the screen's.

Below each SMILES: TRPML1 ag	PINK1 modulator	TRPML1 blocker
1: COc1cc(OC)c(OC)cc1/C=C/c1ccc2ccccc2n1
  5.6	5.8%	.
2: O=[N+]([O-])c1ccc(/C=C/c2ccnc3ccccc23)c([N+](=O)[O-])c1
  -0.4	-0.6%	.
3: Cc1ccc(NC(=O)COC(=O)c2ccccc2OCC(=O)Nc2ccc(Br)cc2)c(Br)c1
  -0.3	-0.5%	.
4: CC(=O)c1ccc(NC(=O)c2cnn3c2NC(=C2CC2)C=C3C(F)F)cc1
  -0.4	-0.7%	.
5: CC(=O)Nc1ccc(Nc2nc(Nc3ccc(Cl)cc3)nc(N3CCOCC3)n2)cc1
  -0.9	8.8%	.
6: CN(C)c1ccc(/C=C/c2ccnc3ccccc23)cc1O
  24	3.1%	.
7: CCOc1ccccc1N1C(=O)c2ccccc2N/C1=C\N1CCN(C(=O)c2ccco2)CC1
  -0.1	0.0%	.
8: COc1cc2nc(CCNCc3ccccc3)nc(NC3CCN(C)CC3)c2cc1OC
  -0.4	-0.5%	.
9: O=C(NC1CCCc2ccccc21)c1cnn2c1NC(=C1CC1)C=C2C(F)F (stereo not given)
  0.3	-0.1%	.
10: Brc1cccc[n+]1Cc1ccc(C[n+]2ccccc2Br)cc1
  0.2	1.5%	.
11: Nc1cccc(S(=O)(=O)N2CCOCC2)c1
  -0.6	3.0%	.
12: CC(=O)N/C(=C/c1ccccc1)c1sc2ccccc2[n+]1CCCCI
  0.6	0.9%	.
13: S=c1[nH]c(=S)c2[nH]cnc2[nH]1
  -0.2	1.0%	.
14: O=C(COC(=O)c1ccc(C(F)(F)F)cc1)NC(=O)C1CCCCC1
  0.1	-1.1%	.
15: COc1cc(NC(=O)CSc2nnc3c4ccccc4n(C)c3n2)cc(OC)c1OC
  -1.1	10%	.

Only TRPML1 ag, for some of the entries so far:
| cpd | molecule | TRPML1 ag |
| --- | --- | --- |
| 9 | O=C(NC1CCCc2ccccc21)c1cnn2c1NC(=C1CC1)C=C2C(F)F (stereo not given) | 0.3 |
| 10 | Brc1cccc[n+]1Cc1ccc(C[n+]2ccccc2Br)cc1 | 0.2 |

Further results
Below each SMILES: TRPML1 ag	PINK1 modulator	TRPML1 blocker
16: Cc1cccc2cc(CN(Cc3ccccc3)Cc3nnnn3Cc3ccccc3)c(=O)[nH]c12
  -0.5	-0.2%	.
17: Cc1cccc(OCC(=O)Nc2ccc(O)c(-c3nc4ccccc4o3)c2)c1
  -0.3	2.2%	.
18: COc1ccc(-c2nc3ccc(NC(C)=O)cc3c(=O)n2Cc2cccc(Cl)c2)cc1COc1ccc(NC(C)=O)cc1
  1.5	1.4%	.
19: COc1ccc(CCn2c(=S)[nH]c(=O)c3cccnc32)cc1OC
  -1.1	2.9%	.
20: CN(C)c1c(Cl)cc(/C=C2\C=Cc3ccccc32)cc1Cl
  -0.3	0.3%	.
21: CC(=O)c1ccc(S(=O)(=O)N2CCN(c3nc(-c4ccccc4)nc4ccccc34)CC2)cc1
  0.5	0.0%	.
22: O=C(Nc1ccccc1Sc1ccccc1)c1cnn2c1NC(=C1CC1)C=C2C(F)(F)F
  0.4	1.8%	.
23: Cc1cc(/C=C/c2c(C)cnc3ccccc23)ccc1N(C)C
  -0.4	5.9%	.
24: CSc1ccc(/C=C2\C=Cc3ccccc32)cc1
  -0.8	-0.2%	.
25: COC(=O)c1ccccc1NC(=O)COc1ccccc1C(=O)Nc1ccccc1
  0.0	0.0%	.
26: c1ccc2nccnc2c1
  0.8	0.0%	.
27: NCCCCCCNS(=O)(=O)c1cccc2ccccc12
  -0.5	-0.8%	.
28: Cc1cc(Oc2ccccc2)nc(C#N)n1
  -0.6	1.9%	.
29: O=S(=O)(c1cccc(Cl)c1)N1CCN(c2nc(-c3ccccc3)nc3ccccc23)CC1
  -0.1	-0.2%	.
30: Cc1ccccc1NC(=O)c1nc(SCc2ccccc2F)ncc1Cl
  0.0	-0.8%	.
31: C=C1C=C(C(F)F)n2ncc(C(=O)N3CCCCC3)c2N1
  -0.5	-1.2%	.
32: Nc1nc(NCc2ccc(Cl)cc2)c2[nH]cnc2n1
  -0.4	0.3%	.
33: CN(C)c1ccc(/C=C/c2sc3ccccc3[n+]2Cc2ccccc2)cc1
  1.5	40µM*	.
34: COc1ccc2c(c1OC)C(=O)N1c3ccccc3C(=O)N(Cc3ccco3)C21 (stereo not given)
  -0.8	0.0%	.
35: O=C(COC(=O)c1ccccc1OCCOc1ccccc1)Nc1ccccc1Br
  1.3	-0.5%	.
36: CCN(CC)CC(=O)c1c(C)n(C)c2ccc(OC)cc12
  -0.4	0.9%	.
37: O=S(=O)(c1cccs1)N1CCN(c2nc(-c3cccs3)nc3ccccc23)CC1
  0.1	0.1%	.
38: O=C1c2ccccc2NC(c2ccc(OCc3ccccc3)c(OCc3ccccc3)c2)N1Cc1ccco1 (stereo not given)
  -0.4	1.8%	.
39: C=C1C=C(C(F)F)n2ncc(C(=O)NCCc3ccccc3OC)c2N1
  -1.3	-0.3%	.
40: Cc1ccc(C)c2c(/C=C/c3ccc(N(C)C)cc3)ccnc12
  0.3	0.3%	.
41: CC(C)C(=O)Nc1ccc(/C=C2\C=Cc3ccccc32)cc1
  -0.8	4.1%	.
42: O=C(Nc1ccc(F)c(F)c1)c1cnn2c1NC(=C1CC1)C=C2C(F)(F)F
  -0.5	-0.5%	.
43: COc1cc2c(NC3CCN(C)CC3)nc(N3CCCN(C)CC3)nc2cc1OCCCCC(N)=O
  -0.5	1.3%	.
44: Fc1ccccc1-c1ccc(-c2nc3ccc(Cl)cn3c2Nc2ccc(Cl)cc2)o1
  1.2	0.0%	.
45: Cc1ccc2nc(-c3ccc(C)o3)c(Nc3ccc4c(c3)OCO4)n2c1
  -1.1	0.5%	.
46: Cc1ccc(NC(=O)c2cnn3c2NC(=C2CC2)C=C3C(F)F)cc1C
  -0.9	-1.1%	.
47: O=C(Cc1ccccc1Cl)NO
  -0.4	0.6%	.
48: COc1cc(NC(=O)CSc2nnc3c(n2)[nH]c2ccc(OC)cc23)cc(OC)c1
  -0.4	3.2%	.
49: S=C(NCCCN(Cc1ccc(Cl)cc1)c1ccc(-c2ccccc2)cn1)NCCCN(Cc1ccc(Cl)cc1)c1ccc(-c2ccccc2)cn1
  -0.7	-0.2%	.
50: COc1ccccc1CN(C)CC(=O)c1c(C)[nH]c2ccccc12
  0.0	0.5%	.
51: Cc1ccc2nc(-c3cccs3)c(Nc3ccccc3)n2c1
  -0.6	-0.3%	.
52: NCCCNC(=S)NCCCN(Cc1ccc(Cl)cc1)c1ccc(Br)cn1
  2.5	1.8%&1.3%	.
53: CN[C@H](C)CCC=C(C)C
  -0.7	-0.4%	.
54: O=C(CNC(=O)c1ccccc1)OCC(=O)c1cccc2ccccc12
  -0.5	-1.0%	.
55: C=C1C=C(C)n2ncc(C(=O)N(CCc3ccccc3)Cc3ccccc3)c2N1
  -1.1	0.2%	.
56: COc1ccc(-c2nnc3ccc(SC(C)C)nn23)cc1OC
  -0.9	1.6%	.
57: CCCc1nnc(NC(=O)c2c(O)c3cccc4c3n(c2=O)CCC4)s1
  -0.5	0.1%	.
58: COc1ccc(C2/C=C\CN(CC3CCCCC3)C(Cc3ccccc3)C(=O)N2Cc2ccc(F)cc2)cc1 (stereo not given)
  1.7	.	24
59: CC(=O)OCC(NC(=O)C(Cc1ccccc1)NC(=O)OC(C)(C)C)C1OC(n2ccc(=O)[nH]c2=O)C(OC(C)=O)C1OC(C)=O (stereo not given)
  0.2	.	5
60: CC12CCC=CC1C(c1cccc(Br)c1)N(Cc1ccccc1)C2=O (stereo not given)
  1.8	.	15

Continued; the last six above are carried over.
Below each SMILES: TRPML1 ag	PINK1 modulator	TRPML1 blocker
55: C=C1C=C(C)n2ncc(C(=O)N(CCc3ccccc3)Cc3ccccc3)c2N1
  -1.1	0.2%	.
56: COc1ccc(-c2nnc3ccc(SC(C)C)nn23)cc1OC
  -0.9	1.6%	.
57: CCCc1nnc(NC(=O)c2c(O)c3cccc4c3n(c2=O)CCC4)s1
  -0.5	0.1%	.
58: COc1ccc(C2/C=C\CN(CC3CCCCC3)C(Cc3ccccc3)C(=O)N2Cc2ccc(F)cc2)cc1 (stereo not given)
  1.7	.	24
59: CC(=O)OCC(NC(=O)C(Cc1ccccc1)NC(=O)OC(C)(C)C)C1OC(n2ccc(=O)[nH]c2=O)C(OC(C)=O)C1OC(C)=O (stereo not given)
  0.2	.	5
60: CC12CCC=CC1C(c1cccc(Br)c1)N(Cc1ccccc1)C2=O (stereo not given)
  1.8	.	15
61: COC(=O)c1ccc(-c2ccc(OC)c(C3C4C=CCC(C)C4C(=O)N3Cc3ccccc3)c2)cc1 (stereo not given)
  0.6	.	16
62: Cc1cn(C2CC3OCC(NC(=O)C4CCCN4C(=O)OC(C)(C)C)C3O2)c(=O)[nH]c1=O (stereo not given)
  0.0	.	1
63: C=C1CCN(C(C)C(=O)OCc2cccc(C)c2)S(=O)(=O)c2ccccc21 (stereo not given)
  1.1	.	24
64: C/C=C1\COC(C(=O)NCc2cccc(OC)c2OC)(C(F)(F)F)C=C1C=C(C)C (stereo not given)
  3.5	.	7
65: C=C1CCN(C(C(=O)NCc2ccc(Cl)c(Cl)c2)C(C)C)S(=O)(=O)c2ccccc21 (stereo not given)
  4.4	.	21
66: CCOc1ccc(N(C(=O)OC(C)(C)C)C(=O)c2ccc(O[Si](C)(C)C(C)(C)C)cc2)c(I)c1
  1.8	.	-18
67: CCc1c2c(nc3ccc(OC)cc13)-c1nc3ccccc3c(=O)n1C2
  0.7	.	-10
68: CCCC[C@H]1CCCO[C@@](C(=O)NCc2cc(C)n(C)n2)(C(F)(F)F)C1
  1.3	.	-6
69: Cc1ccc(-c2c(C3C4C=CCC(C)C4C(=O)N3Cc3ccccc3)ccc3ccccc23)cc1 (stereo not given)
  0.5	.	53
70: Cc1ccc(Cn2cnc3c(cnn3C(C)(C)C)c2=O)cc1F
  0.6	.	20
71: CC(C)(C)n1ncc2c(=O)n(Cc3ccccc3C#N)cnc21
  0.7	.	-29
72: COCCNC(=O)C1(C(F)(F)F)C/C(=C/CCO)CCCO1 (stereo not given)
  0.1	.	-4
73: COc1cccc(COCCN2CCN(S(=O)(=O)c3ccccc3)CCC2=O)c1
  0.3	.	5
74: C[C@@H]1C(=O)N(S(=O)(=O)c2ccc([N+](=O)[O-])cc2)[C@H]1c1ccc(F)cc1
  0.7	.	10
75: CCCC[C@@H]1CCCO[C@@](C(=O)NCCN2CCOCC2)(C(F)(F)F)C1
  0.1	.	-10
76: COc1ccc(C2/C=C\CN([S+](=O)([O-])c3ccc4ccccc4c3)C(C)C(=O)N2Cc2ccc(F)cc2)cc1 (stereo not given)
  0.7	.	61
77: COc1ccc(SCCN2CCN(CCc3ccccc3)CCC2=O)cc1
  2.4	.	-6
78: CC(C)(C)OC(=O)NC(Cc1ccccc1)C(=O)NC1COC2CC(n3cc(F)c(=O)[nH]c3=O)OC12 (stereo not given)
  -0.1	.	7
79: COC(=O)C1=C[C@@H](C(=O)OC)[C@@H]2C3=C(C(=O)C2(C)C)[C@H](C)n2c(=O)n(C)c(=O)n2[C@@H]3C1
  0.5	.	44
80: CC12CCC=CC1C(c1ccc(Br)cc1F)N(Cc1ccccc1)C2=O (stereo not given)
  2.4	.	58
81: CCN(CC)CCC(c1cc(OC)c(OC)c(OC)c1)c1c(OC)cc(OC)c2c1OC(=O)CC2c1ccc(N(C)C)cc1 (stereo not given)
  1.7	.	16
82: CC(=O)Nc1ccc(SCC(c2ccccc2)N2CCN(C)CCC2=O)cc1 (stereo not given)
  0.4	.	-16
83: COC(=O)CN1CC(=O)c2ccccc2S1(=O)=O
  0.5	.	6
84: Cc1cc2c(c(C)c1Cl)C(c1ccc3c(c1)OCO3)CC(c1ccccc1)O2 (stereo not given)
  0.8&0.3	.	4&-1
85: O=S1(=O)C2CC3OC2(CC3c2ccc(F)cc2)CN1Cc1ccc(Cl)cc1 (stereo not given)
  2.8	.	27
86: C/C=C/C(=O)[C@@H](C)[C@@H](/C=C/C[Si](C)(C)C)C(C)C
  1.2	.	20
87: N[C@@H](C(=O)O)c1ccc(O)c(C(=O)O)c1
  0.0	.	10
88: CCC1(CC)C(=O)C2=C3C1[C@H](C(=O)OC)CC(C(=O)OC)C[C@H]3[C@H]1C(=O)N(C)C(=O)[C@H]1[C@H]2C (stereo not given in full)
  0.0	.	4

Along the list, quoted from above.
Nos. 78 to 82 in TRPML1 ag read -0.1, 0.5, 2.4, 1.7, 0.4
